Bioassay records from PubChem.
Arbovirus anti: blocks arbovirus infection. arbovirus infection cell-based antiviral screen. 200,000 tested, 0.37% active. inhibition, % at 10 µM;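 active = inhibition from about 30%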;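 note: bluetongue infection of BSR cells; cell survival read as ATP light after 72 h; 0% = infected wells without compound and 100% = uninfected wells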
Mtb growth: M. tuberculosis H37Rv growth inhibitors, H37Rv strain (AID 1626). M. tuberculosis H37Rv growth inhibition; higher % means a stronger effect. inhibition, % at 10 µM; hits with a dose series show IC50 in µM. 220,000 tested, 0.95% active;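 active = confirmed in a dose series; inconclusive = inhibition above 80% but not taken into the dose series; inactive = below 80% or under 30% at every dose of the series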;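 note: bacteria incubated seven days before Alamar blue readout; 0% = bacteria only wells and 100% = bacteria with antibiotic wells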
Mtb bLac sens: beta-lactam sensitization of Mtb H37Rv; inhibition, % at 25 µM; M. tuberculosis H37Rv growth with meropenem, percent inhibition; hits of this screen are not shown here; 330,000 tested, 0.27% active;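 active = about 74% or more and at least 40 points above the plate without the antibiotic, then above 30% in a dose series; inconclusive = first-round hits that could not be retested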;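 note: growth measured after seven days incubation then overnight dye step; 0% = bacteria only wells and 100% = bacteria with antibiotic; twin plates without the antibiotic show which effects depend on it; some results filed as inactive read as strong as hits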
YopH PTP inh: YopH (Yersinia) phosphatase inhibition. fluorescence Ex485/Em525. inhibition, %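 (about 10 µM by stock and volumes)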. 140,000 tested, 0.16% active. AID 898;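 active = inhibition of 50% or more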;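 note: controls were vehicle for no effect and minimum signal wells for full effect; inactives centre near -20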
RecA splice inh: blocks M. tuberculosis RecA intein splicing | P9WHJ3 | cell-free RecA intein splicing, fluorescence | inhibition, %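 (about 9 µM by stock and volumes)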 | 290,000 tested, 0.75% active | AID 2221; in the data active = inhibition above about 30%; inconclusive = no clear call, values can overlap the other calls;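 note: 0% = vehicle wells and 100% = reference inhibitor control wells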
Target sequence (P9WHJ3 whole entry, looked up, canonical isoform): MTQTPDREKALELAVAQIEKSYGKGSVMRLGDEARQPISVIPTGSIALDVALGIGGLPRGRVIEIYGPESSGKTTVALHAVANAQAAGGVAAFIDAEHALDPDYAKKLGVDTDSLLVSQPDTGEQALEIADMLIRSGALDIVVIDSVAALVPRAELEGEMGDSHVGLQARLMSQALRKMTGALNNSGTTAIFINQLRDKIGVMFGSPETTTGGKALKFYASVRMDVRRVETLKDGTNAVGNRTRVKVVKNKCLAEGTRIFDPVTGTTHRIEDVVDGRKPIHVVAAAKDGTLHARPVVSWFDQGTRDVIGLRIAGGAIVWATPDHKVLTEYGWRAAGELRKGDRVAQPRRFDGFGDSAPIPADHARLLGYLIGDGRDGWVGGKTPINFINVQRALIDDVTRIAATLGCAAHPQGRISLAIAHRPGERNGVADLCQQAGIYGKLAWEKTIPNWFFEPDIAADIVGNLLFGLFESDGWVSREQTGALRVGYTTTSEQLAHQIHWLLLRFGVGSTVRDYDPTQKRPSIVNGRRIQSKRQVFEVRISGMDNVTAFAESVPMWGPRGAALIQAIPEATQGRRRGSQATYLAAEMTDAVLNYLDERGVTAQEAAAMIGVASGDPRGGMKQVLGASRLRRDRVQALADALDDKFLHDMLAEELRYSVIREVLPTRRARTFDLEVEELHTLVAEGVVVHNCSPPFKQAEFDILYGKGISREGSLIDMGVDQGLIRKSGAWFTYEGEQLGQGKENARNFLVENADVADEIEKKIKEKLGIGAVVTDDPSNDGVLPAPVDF
Arbovirus anti repeat: further read-out of Arbovirus anti, marked with its call; inhibition, %; measured here: 10K subset replicate screen; many hits read low in the repeat;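 first of two repeat runs on a subset; 0% = infected and 100% = uninfected wells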
* hit, by the source's call; ? = inconclusive; nt = not tested or not shown. An excerpt; rates above refer to the full screens.

SMILES	Arbovirus anti	Mtb growth	Mtb bLac sens	YopH PTP inh	RecA splice inh	others
O=C1c2ccccc2C2=Nc3ccccc3SC(c3cccc(F)c3)C12 (stereo not drawn)	-23	5%	6	-23	1.1
Cc1ccc(SCCC(=O)N2CCCC2)cc1	1	-4%	-5	5	1.5
Cc1ccc(-n2c(C)cc(C(=O)CSc3nnc4ccccn34)c2C)cc1	12	20%	2	-34	0.8
O=C(CN1C(=O)COc2ccccc21)NCCCN1CCCCC1	nt	nt	-5	nt	2.2
C/C=C(\C)C(=O)Nc1cccc(C2=NOC3(C2)C[C@@H](C(N)=O)N(C(=O)/C(C)=C/C)C3)c1 (stereo partly drawn)	nt	-11%	-7	nt	1.1
NC(N)=NCC(O)CN(c1ccccc1)c1ccccc1 (stereo not drawn)	nt	10%	-8	nt	2.0
CCCC(=O)NC(C)C(c1cccs1)N1CCN(c2ccccc2)CC1 (stereo not drawn)	1	-2%	7	-39	-0.3
CCc1ccc(C(=O)N2CCC(c3nc4ccccc4s3)CC2)cc1	-17	-10%	-4	-6	6.1
CN(C)C(CNC(=O)c1ccc(NS(=O)(=O)c2ccc(F)cc2)cc1)c1ccco1 (stereo not drawn)	nt	nt	1	nt	-0.9
CCOC(=O)COc1ccc(S(=O)(=O)NCc2ccncc2)cc1	5	2%	7	-34	nt
CCn1ncc(Br)c1C(=O)Nc1ccc(F)c([N+](=O)[O-])c1	6	9%	5	-25	0.1
O=C(Cc1csc(N2CCOCC2)n1)N/N=C/c1ccc(F)cc1	8	-5%	1	6	0.3
CCCS(=O)(=O)N1CCCC(C(=O)NCCCN2CCN(c3ccc(F)cc3)CC2)C1 (stereo not drawn)	-1	-1%	-13	8	-3.3
Cc1c(NC(=O)c2cc(-c3ccc(Cl)cc3)on2)c(=O)n(-c2ccccc2)n1C	nt	nt	4	nt	-0.2
Cc1cccc(NCN2C(=O)c3ccccc3C2=O)c1	-2	-8%	-6	-16	0.4

Among those listed so far, eight have a carbonyl joined to an NH by a bond outside any ring:
SMILES	Arbovirus anti	Mtb growth	Mtb bLac sens	YopH PTP inh	RecA splice inh	others
O=C(CN1C(=O)COc2ccccc21)NCCCN1CCCCC1	nt	nt	-5	nt	2.2
C/C=C(\C)C(=O)Nc1cccc(C2=NOC3(C2)C[C@@H](C(N)=O)N(C(=O)/C(C)=C/C)C3)c1 (stereo partly drawn)	nt	-11%	-7	nt	1.1
CCCC(=O)NC(C)C(c1cccs1)N1CCN(c2ccccc2)CC1 (stereo not drawn)	1	-2%	7	-39	-0.3
CN(C)C(CNC(=O)c1ccc(NS(=O)(=O)c2ccc(F)cc2)cc1)c1ccco1 (stereo not drawn)	nt	nt	1	nt	-0.9
CCn1ncc(Br)c1C(=O)Nc1ccc(F)c([N+](=O)[O-])c1	6	9%	5	-25	0.1
O=C(Cc1csc(N2CCOCC2)n1)N/N=C/c1ccc(F)cc1	8	-5%	1	6	0.3
CCCS(=O)(=O)N1CCCC(C(=O)NCCCN2CCN(c3ccc(F)cc3)CC2)C1 (stereo not drawn)	-1	-1%	-13	8	-3.3
Cc1c(NC(=O)c2cc(-c3ccc(Cl)cc3)on2)c(=O)n(-c2ccccc2)n1C	nt	nt	4	nt	-0.2

Following part.
SMILES	Arbovirus anti	Mtb growth	Mtb bLac sens	YopH PTP inh	RecA splice inh	others
CN(C(=O)COC(=O)c1ccccc1NCc1ccco1)c1c(N)n(Cc2ccccc2)c(=O)[nH]c1=O	nt	nt	-4	nt	-5.4
O=C(N/N=C/c1ccccc1O)c1cccc(C(F)(F)F)c1	-26	1%	12	0	3.9
CCN(CC)S(=O)(=O)c1ccc(NC(=O)c2cccnc2Cl)c(NC(=O)c2cccnc2Cl)c1	-10	6%	-3	nt	0.7
CC1CCCC(C)N1C(=O)COC(=O)c1nn(C)c(=O)c2ccccc12 (stereo not drawn)	nt	nt	-4	nt	1.7
COc1ccccc1CN1CCNC(=O)C1CC(=O)N(C)Cc1cnccn1 (stereo not drawn)	8	-1%	nt	nt	10
COc1ccccc1C(=O)N1CCN=C1SCc1cccnc1	-1	-5%	-10	-6	2.2
Cc1nc(NC(=O)CN(C)S(=O)(=O)c2ccc(Cl)cc2)sc1C	2	12%	-7	-21	0.1
COC(=O)/C(C#N)=C/c1ccc(-c2ccc(S(N)(=O)=O)cc2)o1	nt	2%	4	nt	1.0
COc1cccc(C2C(C(=O)OC(C)C)=C(C)Nc3ncnn32)c1 (stereo not drawn)	0	-3%	20	-43	-1.2
N#C/C(=C\Nc1ccc2c(c1)OCCO2)c1nc2ccccc2[nH]1	9	76%	5	5	2.4
CN(CC(=O)Nc1ccccc1Cl)C(=O)COC(=O)c1cc([N+](=O)[O-])ccc1N1CCOCC1	nt	nt	-9	nt	-2.9
CC1=CC(=C(C#N)c2nc3ccccc3s2)C=C(C)N1CC1CCCO1 (stereo not drawn)	2	-1%	-4	nt	nt
COc1ccc2nc(C)cc(Nc3ccc(C(=O)O)cc3)c2c1	nt	nt	-6	nt	1.1
CSc1cccc(NS(=O)(=O)c2ccc3c(c2)NC(=O)C(C)C(=O)N3)c1 (stereo not drawn)	nt	nt	-1	nt	0.7
Cn1c(CC(=O)Nc2ccccc2)nnc1SCC(=O)Nc1ccc(N2CCOCC2)cc1	nt	nt	0	nt	0.6
CCCCC(C(=O)O)C(C)CC(=O)Nc1ccn(-c2ccccc2)n1 (stereo not drawn)	9	-11%	-7	-2	-0.7
O=c1c2c3c(sc2n(CCN2CCCCC2)c(=O)n1Cc1ccco1)CCCCC3	-10	12%	53	-17	0.2
Cc1ccccc1C(=O)NC(=S)Nc1ccccc1C(=O)O	9	2%	-9	nt	-0.2
Cc1nn(CCCC(=O)N2CCN(c3ccc(F)cc3)CC2)c(C)c1[N+](=O)[O-]	0	7%	2	nt	1.0
Cc1ccc(-c2nc3ccccc3c(C(=O)NCc3cccs3)c2C)cc1	0	2%	-8	-2	16
Cc1cccc(NC(=S)N2CCN(c3ccccn3)CC2)c1	nt	nt	5	nt	-0.5
CCCc1cc(C(=O)N/N=C/c2ccc(CC)s2)c2ccccc2n1	-14	4%	0	-16	4.3
N#Cc1nc(-c2ccc(F)cc2)oc1NCc1ccco1	nt	-3%	2	nt	-0.8
CCOC(=O)c1cnn(C)c1NC(=O)c1ccc([N+](=O)[O-])cc1	nt	nt	0	nt	-4.2
O=C(CS(=O)c1ccc(C(F)(F)F)cc1[N+](=O)[O-])Oc1ccccc1 (stereo not drawn)	2	3%	100	-15	66*
CCN(CC)S(=O)(=O)c1ccc(NC(=O)Cn2c(=O)oc3ccccc32)cc1	-1	-9%	-2	-40	-0.5	Arbovirus anti repeat=0
COc1ccc(C(=O)/C=C/c2cccs2)c(OC(=O)N2CCOCC2)c1	9	2%	7	-8	1.3
NC(=O)C1CCN(C(=O)CN2CCc3ccccc32)CC1	-1	6%	1	2	2.9
NC(=O)CC(NC(=O)Cc1cccc2ccccc12)c1ccc(NC2CCCCCCC2)c([N+](=O)[O-])c1 (stereo not drawn)	nt	-2%	-16	nt	0.7
COc1ccc(NC(=O)C2CCCC2)cc1	nt	nt	-12	nt	-2.1
COc1cc2c(cc1OC)C(c1cccs1)N(C(=O)c1ccc(S(=O)(=O)N(C)C)cc1)CC2 (stereo not drawn)	nt	-2%	-6	nt	4.4
O=C(CCc1nc2ccccc2c(=O)[nH]1)NCCN1C(=O)S/C(=C\c2ccc(Cl)cc2Cl)C1=O	nt	nt	-14	nt	6.1
CCOC(=O)C1CCN(C(C(=O)Nc2ccc3c(c2)OCCO3)c2ccccc2)CC1 (stereo not drawn)	2	1%	-5	-19	1.2
Cc1ccc(NC(=O)C2CCCN(c3ncnc4c3nc3n4CCCCC3)C2)nc1 (stereo not drawn)	nt	nt	24	nt	-0.1
O=C1CC(N2CCOCC2)C(=O)N1c1cccc(Cl)c1 (stereo not drawn)	6	-11%	2	-55	-4.2
COc1ccc(N2CCN(C(CNC(=O)C(=O)NCCCO)c3ccco3)CC2)cc1 (stereo not drawn)	nt	nt	9	nt	-0.6
CCN(CC(=O)Nc1cccc(S(=O)(=O)N2CCOCC2)c1)Cc1ccccc1	nt	nt	-1	nt	0.4
COc1ccc(OC)c(NC(=O)C2CCN(C(=O)C3CC(=O)N(c4ccc(C)cc4)C3)CC2)c1 (stereo not drawn)	nt	nt	-9	nt	-0.8
CN1CCc2ccccc2C1C1CCNCC1 (stereo not drawn)	1	-2%	?	-2	0.9
Cc1nn(CCc2nc(-c3ccco3)cs2)c2[nH]c(=O)cc(C(F)(F)F)c12	18	-11%	-2	-17	nt
C=CCOc1ccc2c(c1)c(S(=O)(=O)c1ccc(C)cc1)cn2COC	6	-4%	-4	-37	7.7
CCN(C(=O)COC(=O)c1cccnc1Nc1ccccc1F)C1CCS(=O)(=O)C1 (stereo not drawn)	12	4%	-3	-42	-2.0
Cc1ccc(NCCC(=O)c2cccc([N+](=O)[O-])c2)cc1	-1	9%	76	-37	0.6
CCOc1ccc(S(=O)(=O)N2CCOCC2)cc1NC(=O)Cc1c(F)cccc1Cl	nt	nt	-3	nt	-1.2
Cc1ccc(C(C)C)c(OCCn2c(=O)oc3ccccc32)c1	3	4%	-11	-27	nt
CC1CCN(S(=O)(=O)N2CCC(C(=O)NCCN3CCOCC3)CC2)CC1	3	11%	-5	-27	-1.7
CC1C=CCC2C(=O)N(c3cccc(C(=O)N4CCN(c5ccc(F)cc5)CC4)c3)C(=O)C12 (stereo not drawn)	5	nt	-7	-44	nt
Cc1ccc(C)c(S(=O)(=O)C(C#N)c2nc3ccccc3nc2N2CC(C)OC(C)C2)c1 (stereo not drawn)	1	-1%	15	-29	-42
COc1cc(C2C3=C(CCCC3=O)Nc3c2c(C)nn3-c2cccc(C)c2)cc(OC)c1O (stereo not drawn)	nt	12%	3	nt	-0.8
CCOc1ccc(C(=O)NCC(c2cccs2)N(C)C)cc1OCC (stereo not drawn)	12	4%	4	-1	-0.4
CN1C(=O)/C(=C2\SC(N3CCCCCC3)=NC2=O)c2ccccc21	-7	4%	10	-18	-0.1
CC1CCCCN1C(=O)CSc1nc(N)nc(N)n1 (stereo not drawn)	nt	nt	-3	nt	-1.7
CCOc1ccc(N(C(C)C(=O)N2CCCCCC2)S(C)(=O)=O)cc1 (stereo not drawn)	nt	nt	-1	nt	0.6
CSc1nc(Oc2ccc(F)cc2)c2ccccc2n1	-3	9%	-6	-25	2.9
CCn1cnc2c1c(=O)n(CC(=O)NCC(F)(F)F)c(=O)n2Cc1ccccc1	9	-2%	-11	nt	-0.1
Cc1cccc(N2CCN(C(=O)c3nn(C)c4c3CS(=O)(=O)c3ccccc3-4)CC2C)c1 (stereo not drawn)	nt	nt	6	nt	2.9
NC(=O)CSc1nnnn1-c1cccc(Cl)c1	-1	11%	0	-19	-1.4
O=C(COC(=O)CN1C(=O)NC2(CCCC2)C1=O)Nc1ccc(C(F)(F)F)cc1[N+](=O)[O-]	nt	nt	-3	nt	-4.3
CC(C)OCCCn1c(=N)c(C(N)=S)cc2c(=O)n3ccccc3nc21	-10	4%	7	-22	-328
COc1ccc(S(=O)(=O)N2CCCC2C(=O)Nc2nccs2)cc1 (stereo not drawn)	8	-6%	-3	9	nt

Next part
SMILES	Arbovirus anti	Mtb growth	Mtb bLac sens	YopH PTP inh	RecA splice inh	others
COc1cc(SC)ccc1C(=O)Nc1cc(C)c(OCC(=O)N2CCOCC2)c(C)c1	nt	nt	4	nt	-1.9
COc1ccccc1C(=O)COC(=O)c1cc(S(=O)(=O)N2CCCCC2)ccc1N1CCOCC1	nt	nt	6	nt	5.9
Cc1cc(=O)n2nc(N3CCCC(C(=O)NC(C)c4ccccc4)C3)sc2n1 (stereo not drawn)	-15	4%	-2	-9	-0.3
COc1cccc(-n2c(C)nc3c(cnn3-c3ccc(Cl)cc3)c2=O)c1	7	-7%	-7	-23	-1.4
CCCCNC(=O)CSc1nnc(-c2c[nH]c3ccccc23)n1CC1CCCO1 (stereo not drawn)	3	-2%	-6	-19	-0.8
O=C(CN1CCN(Cc2ccccc2)CC1)Nc1nc2ccccc2s1	nt	nt	10	nt	1.4
CCOc1ccccc1Nc1nnc(SCC(=O)NC(Cc2c[nH]c3ccccc23)C(=O)O)s1 (stereo not drawn)	4	-2%	6	nt	1.1
Cc1cccc(NC(=O)[C@@H]2CCCN2C(=O)OC(C)(C)C)c1C	nt	nt	-11	nt	-6.6
Cc1ccc2c(c1)C(=O)C(=O)N2CCOc1ccccc1	-12	0%	4	nt	1.4
O=C(Oc1cc(=O)oc2ccccc12)c1cccnc1Cl	6	-10%	1	-48	0.5
CCN(CC)S(=O)(=O)c1ccc2oc(C(=O)N3CCCCCC3)c(C)c2c1	0	6%	3	-20	3.9
COC(=O)C1CCCCN1C(=O)c1cc(COc2cccc3cnccc23)on1 (stereo not drawn)	nt	nt	-2	nt	1.0
COc1ccc(-c2nc3ccccn3c2/N=C/c2ccc(OC)c(OC)c2)cc1O	3	-1%	2	-13	-88
COc1ccc(CN2CCN(CCCc3ccccc3)CC2)c(OC)c1	-5	1%	-4	nt	2.1
